Assay outcomes (PubChem)
NPYLR7 agonist – mosquito NPYLR7 agonism; 270,000 tested, 0.15% active; AID 1259423; HEK293T NPYLR7/Galpha15, GCaMP6s calcium fluorescence; activation, % at 10 µM; in the data active = activation above about 40%;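 also: 0% = vehicle and 100% = reference agonist at the receptor; some compounds past the cut are filed as inactive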
NPYLR7 agonist max-min – also measured in NPYLR7 agonist; calls as there; activation, %; measured here: Max-Min RFU normalised activation; some inactives read as strong as hits;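 span of the calcium signal over five minutes; 0% = vehicle and 100% = native peptide agonist; compound fluorescence can raise it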
An asterisk follows results filed as active; & = joins results of further samples. Only part of the results is shown, so the mix of outcomes need not match the whole.

item	molecule	NPYLR7 agonist	NPYLR7 agonist max-min
1	Cn1c(Sc2ncc(-c3ccc(F)cc3)[nH]2)c(C#N)c(=O)n(C)c1=O	-2	-2
2	c1ccc2c(-n3cnnc3CN3CCOCC3)cccc2c1	10	0
3	O=C(CCS(=O)(=O)Cc1ccccc1)n1nnc2ccccc21	-10	-12
4	COCC(=O)N1CCCN(c2nc(Cc3ccccc3)nc3c2cnn3-c2ccccc2)CC1	9	9
5	COc1cccc(NC(=O)N2CCSC23C(=O)N(Cc2ccccc2Cl)c2ccc(F)cc23)c1 (centres undefined)	2	5
6	CC(C)c1cc(C(=O)N2CC(=O)N(Cc3cccnc3)CC(OCc3ccccc3)C2)n[nH]1 (centres undefined)	17	6
7	Cc1cc(C)cc(Oc2cc(C)nc(SCc3c(F)cccc3F)n2)c1	22	22
8	CC(C(=O)Nc1ccc2c(c1)OCCO2)N1CCN(c2ccccc2)CC1 (centres undefined)	-16	-15
9	C=CCN(C(=O)Nc1ccc2c(c1)nnn2C)c1ccccc1	18	10
10	CCC(=O)N1CCC1(C)C(=O)NCc1ccc(Cl)cc1 (centres undefined)	4	0
11	CCOCc1ccc(C(=O)O)o1	10	17
12	CCN(CC)S(=O)(=O)c1cc(NC(=O)c2ccc3c(c2)CCC(=O)N3)ccc1Cl	2	-2

The list continues:
item	molecule	NPYLR7 agonist	NPYLR7 agonist max-min
13	c1csc(CNCC2CCCO2)c1 (centres undefined)	9	12
14	COc1ccc(N(C)S(=O)(=O)c2ccc(OC)c(N3CCN(S(=O)(=O)c4ccc(F)c(Cl)c4)CC3)c2)cc1	20	13
15	O=C(CSc1nc(=O)n(CCCN2CCOCC2)c2c1CCCC2)Nc1ccc(F)cc1F	-4	-2
16	Cc1cc(NC(=O)c2ccco2)sc1C(=O)N1CCOC(C)C1 (centres undefined)	1	2
17	Cn1nc(CC(C)(C)C)cc1NC(=O)C1CCOCC1	1	-1
18	O=C(NCc1cccs1)C1(c2ccccc2)CCC1	-1	-1
19	CCOc1ccccc1-n1nnc(C(=O)OC)c1C(=O)OC	8	9
20	O=C(NCCCO)C1CCCCC1C(=O)N1CCc2c([nH]c3ccccc23)C1 (centres undefined)	-15	-19
21	Cc1ccc(NC(=O)N(CCN(C)C)Cc2ccc(Br)cc2)cc1F	1	-2
22	N#Cc1c(O)c2c3c(sc2[nH]c1=O)CCCC3	3	1
23	CCOC(=O)CC1=NN(c2ccccc2)C(=O)/C1=C\c1ccc(OCC)cc1	-6	-1
24	Cc1cccc(-n2nnnc2SC2CCS(=O)(=O)CC2)c1	-9	-12

(list continues)
item	molecule	NPYLR7 agonist	NPYLR7 agonist max-min
25	CCc1nc2ccc(C(=O)NCc3ccc4c(c3)OCO4)cn2c1N(C)C(=O)c1ccncc1	22	19
26	Cc1ccccc1-c1ccccc1C(=O)N1CCOC(C(F)(F)F)C1 (centres undefined)	1	-3
27	CC1CC(C)(C)CC2(C1)NC(=O)N(CC(=O)OCC(=O)c1ccc[nH]1)C2=O (centres undefined)	0	7
28	NC(=O)c1nc(-c2ccco2)nc2c1[nH]c(=O)n2-c1ccc(Cl)cc1	1	9
29	CN1CCC(N(Cc2ccncc2)Cc2cncn2C)CC1	15	11
30	Cc1nc(C(C)C)sc1C(=O)NCC1CCN(c2cnn(C)c(=O)c2)C1 (centres undefined)	0	-5
31	COCCCN(Cc1c(-c2ccccc2)noc1N(C)C1CCCCC1)C(=O)c1cccs1	9	14
32	CCCCC(=O)Nc1cc(-c2cn3cccnc3n2)ccc1C	3	7
33	COCCNC(=O)c1nn(-c2ccc(Cl)cc2)c(=O)n(C(C)c2ccccc2)c1=O (centres undefined)	13	14
34	CC(=O)[C@@H]1[C@@H](c2cccc(I)c2)C(C#N)(C#N)[C@H]2C=Cc3ccccc3N12	3	5
35	NC(=O)c1ccc(NC(=O)Cn2cc(OCc3ccccc3F)c(=O)cc2CO)cc1	0	-2
36	C=CCN(Cc1nccn1Cc1ccc(Cl)cc1Cl)C(=O)c1cccs1	24	29

Continuation:
item	molecule	NPYLR7 agonist	NPYLR7 agonist max-min
37	CCNC(=O)[C@@H]1C[C@H](N)CN1S(=O)(=O)c1ccc(-c2ccno2)o1	16	7
38	CC(C)c1nccn1CCCNC(=O)C1(N)CC1	-3	-3
39	COc1ccc2oc(=O)c(-c3csc(Nc4ccc(C)cc4)n3)cc2c1	2	2
40	COc1ccc(CNC(=O)Cn2nc3c(c2NC(=O)COc2ccc(Cl)cc2)CSC3)cc1	-5	-4
41	Cc1ccnc(Nc2nc(-c3c(C)nc4ccccn34)cs2)c1	-10	-18
42	COc1cccc(-c2[nH]cnc2-c2ccccc2)c1OC	0	-5
43	CC(=O)c1cccc(NC(=O)Nc2cn(C)c3ccccc23)c1	3	0
44	COc1ccc(-c2cc(C(=O)NC(C)CCc3ccccc3)n(-c3ccc(F)cc3)n2)c(OC)c1 (centres undefined)	-3	6
45	CC(C)(C)c1ccc(COc2coc(CN3CCN(S(=O)(=O)c4ccc(Br)cc4OC(F)(F)F)CC3)cc2=O)cc1	25	15
46	COc1cccc(-c2nc(C=Nc3cccc(Cl)c3)c(O)o2)c1	-6	-4
47	Cc1cc(SCc2nn(CN(C)C)c(=S)o2)nc(N2CCCC2)n1	-3	16
48	O=C(Cn1[nH]c(=O)ccc1=O)N1CCCN(Cc2cccs2)CC1	-1	-2

(more compounds)
item	molecule	NPYLR7 agonist	NPYLR7 agonist max-min
49	Cc1cccc(NC(=O)CC(=O)N(C)CCCN2CCCCCC2)c1C	4	-1
50	Cc1oc(-c2cccc(Oc3ccccc3)c2)nc1CN1CCOC(CCN)C1 (centres undefined)	9	7
51	Cc1cc(C(C)CO)cc(C(C)(C)C)c1O (centres undefined)	1	0
52	NCCc1cnn(Cc2ccccc2)c1	4	-1
53	CCOC(=O)c1cnc2cc(C(F)(F)F)ccc2c1Nc1c(C)n(C)n(-c2ccccc2)c1=O	6	7
54	O=C(NCc1cccc(F)c1)N1CCC2(CC1)OCCc1c2[nH]c2ccccc12	14	13
55	CCN(CC)CCCNC1=NCC(C)S1 (centres undefined)	-8	-11
56	C=C(C)CN1CCN(c2nc3c(c(=O)[nH]c(=O)n3C)n2Cc2ccc(C)cc2)CC1	-2	37
57	COc1ccccc1NC(=O)N(Cc1ccccc1F)CC1CC(c2ccc(F)cc2)=NO1 (centres undefined)	18	14
58	COCCCN(CC(=O)N1CCc2sccc2C1c1ccc(Cl)cc1Cl)C(=O)COc1ccc(Cl)cc1 (centres undefined)	-1	4
59	CCc1cc(=O)[nH]c(-n2nc(C)cc2NC(=O)C2CC(=O)N(c3ccc(OC)cc3)C2)n1 (centres undefined)	0	-5
60	COc1cc2c(cc1OC)C(c1cccc(Cl)c1)N(C(=O)c1cc(C(F)(F)F)cc(C(F)(F)F)c1)CC2 (centres undefined)	15	6

(more compounds)
item	molecule	NPYLR7 agonist	NPYLR7 agonist max-min
61	COc1cccc(CC(=O)N2CCC3(CC2)OCc2ccccc2O3)c1	2	-11
62	CCCc1cc(C(=O)OCC)nn1C1CCN(C(=O)CCCC(=O)OCC)CC1	11	7
63	CCCOC1OC(COC(C)=O)C(OC(C)=O)C(OC(C)=O)C1NC(C)=O (centres undefined)	-5	-6
64	CC(C)c1ccc(NC(=O)N(Cc2nc(C(=O)N3CCN(c4cccc(C(F)(F)F)c4)CC3)cs2)C(C)C)cc1	10	13
65	CCCCNC(=O)CN1CCN(C(=O)CCc2c(C)noc2C)CC1	5	6
66	COc1ccc(-c2nnc(SCc3nc(-c4ccc(C)c(F)c4)no3)o2)cc1	8	10
67	Cn1c(C(=O)NCC2CCCO2)cc2c(=O)n3ccccc3nc21 (centres undefined)	3	-1
68	CCCc1cc(=O)[nH]c(SCc2nc3ccccc3o2)n1	-1&-25	-1&-30
69	Cn1ccsc1=NC(=O)C1CC1c1ccc(F)cc1 (centres undefined)	4	12
70	CCOC(=O)c1ncn2c(=O)c3c(C(=O)OCC)ncn3c(=O)c12	2	0
71	CCSc1nnc(NC(=O)c2c(-c3c(Cl)cccc3Cl)noc2C)s1	6	3
72	COc1cc(Br)c(C2C(C#N)=C(C)NC3=C2C(=O)CC(c2ccc(Cl)cc2)C3)cc1OC (centres undefined)	-16	-26

Next section
item	molecule	NPYLR7 agonist	NPYLR7 agonist max-min
73	O=C(C1CCCN(S(=O)(=O)N2CCOCC2)C1)N1CCCCCC1 (centres undefined)	2	-2
74	O=C(COc1ccc([N+](=O)[O-])cc1Br)N=Nc1c(O)[nH]c2ccc([N+](=O)[O-])cc12	-2	-6
75	Cc1cccc(-c2cc(N)n(-c3ccc(C(=O)N4CCCCC4)cc3)n2)c1	8	4
76	O=C(/C=C/c1ccccc1)N1CCCN(c2nc(C3CCOCC3)nc3c2cnn3-c2ccccc2)CC1	10	11
77	Cc1noc(-c2ccc(N3CCCC(CN4CCCC4=O)C3)nc2)n1 (centres undefined)	4	1
78	COc1ccc(Nc2nc(N3CCCC3)nc3[nH]ncc23)cc1	3	4
79	N#C/C(=C\N1CCC(C(N)=O)CC1)S(=O)(=O)c1ccc(Cl)cc1	6	3
80	CC(C)OP(=O)(OC(C)C)C(N)CC12CC3CC(CC(C3)C1)C2 (centres undefined)	4	9
81	CC1CCN(C(=O)CCN2Cc3ccccc3C[C@H]2C(N)=O)C1 (some centres undefined)	6	5
82	O=c1c2cnc3ncnn3c2ccn1CC1CCCO1 (centres undefined)	4	7
83	Cc1nnc(SCC(=O)c2c[nH]c(C(=O)N3CCCC3)c2)n1C	2	1
84	O=C(CCCSc1nnc(-c2ccc(Cl)cc2)n1-c1ccccc1)NC(c1ccccc1)c1ccccc1	22	24

Given with two lines to a compound: entries from further up
Every second line gives: NPYLR7 agonist	NPYLR7 agonist max-min
83: Cc1nnc(SCC(=O)c2c[nH]c(C(=O)N3CCCC3)c2)n1C
→ 2	1
84: O=C(CCCSc1nnc(-c2ccc(Cl)cc2)n1-c1ccccc1)NC(c1ccccc1)c1ccccc1
→ 22	24

Returning to the listing, starting 5 compounds before the break.
item	molecule	NPYLR7 agonist	NPYLR7 agonist max-min
80	CC(C)OP(=O)(OC(C)C)C(N)CC12CC3CC(CC(C3)C1)C2 (centres undefined)	4	9
81	CC1CCN(C(=O)CCN2Cc3ccccc3C[C@H]2C(N)=O)C1 (some centres undefined)	6	5
82	O=c1c2cnc3ncnn3c2ccn1CC1CCCO1 (centres undefined)	4	7
83	Cc1nnc(SCC(=O)c2c[nH]c(C(=O)N3CCCC3)c2)n1C	2	1
84	O=C(CCCSc1nnc(-c2ccc(Cl)cc2)n1-c1ccccc1)NC(c1ccccc1)c1ccccc1	22	24
85	CC(C)C(NC(=O)/C=C/c1cc(Br)ccc1F)c1nccn1C (centres undefined)	3	3
86	CCOc1ccc(NC(=O)CSc2nc3[nH]ncc3c(=O)n2-c2ccccc2CC)cc1	-1	-2
87	C=CCn1c(C2CC(=O)N(CCc3ccccc3)C2)nc2ccccc21 (centres undefined)	20	14
88	CC(C#N)c1cccc(C(=O)N2CCN(Cc3ccc(-c4noc(C5CCCC5)n4)cc3)CC2)c1 (centres undefined)	6	10
89	COc1cc(N=c2scc(-c3ccccc3)n2-c2cccc(Oc3ccccc3)c2)cc(OC)c1	-9	-14
90	CC(CCc1ccco1)NC(=O)Cc1ccc(Cl)c(Cl)c1 (centres undefined)	0	5
91	COc1ccc(-c2ccc(=O)n(Cc3cc(C)ccc3C)n2)cc1OC	8	-2
92	NC(=O)c1ccc(CSc2nnc(Cc3ccccc3)n2-c2ccc(F)cc2)cc1	19	29
93	CSc1ccc(CC(=O)N(CCn2cccn2)c2nc3c(F)cccc3s2)cc1	-18	-24
94	Cc1ccoc1C(=O)Nc1cc(C(F)(F)F)cc(C(F)(F)F)c1	4	1
95	CCC1(O)CCN(C(=O)C(C)Oc2ccc(Cl)cc2Cl)CC1 (centres undefined)	-2&-2	-2&0
96	CCN(CCN1CCOCC1)C1CCCNC1 (centres undefined)	3	3

Laid out differently: results already given
[88] CC(C#N)c1cccc(C(=O)N2CCN(Cc3ccc(-c4noc(C5CCCC5)n4)cc3)CC2)c1 (centres undefined)
[96] CCN(CCN1CCOCC1)C1CCCNC1 (centres undefined)

| Assay by compound | 88 | 96 |
| --- | --- | --- |
| NPYLR7 agonist | 6 | 3 |
| NPYLR7 agonist max-min | 10 | 3 |

New compounds follow.
item	molecule	NPYLR7 agonist	NPYLR7 agonist max-min
97	Cc1cc(C)n(C2CCN(C(=O)c3cc(-c4cccn4C)n[nH]3)C2)n1 (centres undefined)	-4	-7
98	CC(C)c1c(C(=O)NCC2CCCO2)cnn1-c1cccc(F)c1 (centres undefined)	14	27
99	COc1cc(F)c(C(=O)N2CCOC(COCc3cccc(C(F)(F)F)c3)C2)c(F)c1 (centres undefined)	12	33
100	COc1ccccc1N1CCN(c2ncccc2CNC(=O)C2CCNC2)CC1 (centres undefined)	13	1
101	CCOc1cnn(C)c(=O)c1Nc1cccc(C(=O)NCc2ccc(F)cc2)c1	1	8
102	CN1C(=O)c2ccccc2NC1C1CCCCC1 (centres undefined)	-1	-2
103	COCCn1cc(C(=O)Nc2nnc(C)s2)c2nn(-c3ccccc3)c(=O)c-2c1	19	14
104	N#Cc1ccccc1C(=O)N1CCN(Cc2cccc(-c3noc(-c4cccc(Cl)c4)n3)c2)CC1	3	0
105	CCc1cc(C(=O)Nc2cccc(C(N)=O)c2)sc1C	-8	-8
106	Cc1ccc(CNC(=O)CSc2nc3c(-c4ccccc4)c[nH]c3c(=O)n2C2CC2)cc1	-1	-6
107	Cc1ccc(S(=O)(=O)N2CCN(C(C)C(=O)NC(C)C3CC4CCC3C4)CC2)s1 (centres undefined)	-1	-1
108	CN(C)CCN(Cc1ccccc1)C(=O)c1cc(-c2ccc(F)cc2)n2nc(C(C)(C)C)cc2n1	5	6
109	O=C(c1cccc2ccccc12)N1CCN(c2nccc(-c3ccc(Oc4ccccc4)cc3)n2)CC1	5	1
